BmaI1 enzyme: BmaI1 acyl-homoserine lactone synthase inhibition – biochemical, fluorescence intensity, with counterscreen (AID 720554). BmaI1 enzyme assay, fluorescence intensity; hits give high values; test concentration not given here; a few actives read low; strong numbers were not always called active. inhibition, %. 12,000 tested, 0.4% active;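 active = both replicates within 2 robust z-scores of the inhibited control and a quiet counterscreen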;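 note: 0% = uninhibited enzyme and 100% = inhibited control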
BmaI1 enzyme counterscreen: second read-out of BmaI1 enzyme, no call of its own (marks repeat the call); inhibition, %; measured here: counterscreen; design of the counterscreen not given here;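 first of two replicates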
* marks the source's active call; other numbers are inactive results.

SMILES	BmaI1 enzyme	BmaI1 enzyme counterscreen
Cc1[nH]c2ccccc2c1/C=N/NC(=O)Cc1nc2sc(C)c(C)c2c(=O)[nH]1	26	12
COc1ccc2nc(C)cc(NCCN3CCOCC3)c2c1	10	6
CC(=O)Nc1ccc(NC(=O)CNC2CCC(C)CC2)cc1 (configuration not stated)	16	15
O=C(O)CC1(CC(=O)Nc2nccs2)CCCC1	26	15
Cc1ccc2c(CC(=O)OCc3ncc(-c4ccccc4)o3)coc2c1	2	6
COc1ccc(C2C3=C(Nc4ncnn42)c2ccccc2CCC3)cc1 (configuration not stated)	-7	-12
Cc1[nH]c2ccc(C(=O)OCC(=O)c3cc4ccccc4o3)cc2c1C	16	10
Cc1nc2ccccc2c(C)c1CC(=O)N1CCN(c2ccc(O)cc2)CC1	94	45
CC(=O)N1CCN(CC(=O)NCCc2ccc(Cl)cc2)CC1	14	12
COC(=O)c1ccc(CSc2nnc(SCc3ccc(C(=O)OC)o3)s2)o1	10	2
COc1ccc(CNC(=O)NC(C)(C)C)cc1	10	12
COc1ccc(N2CCN(/C=C3\C(=O)N(c4ccc(C)cc4)C(=O)c4ccccc43)CC2)cc1	-39	-24
CC#C[C@]1(O)CC[C@H]2[C@@H]3CCC4=CC(=O)CCC4=C3[C@@H](c3ccc(N(C)C)cc3)C[C@@]21C	-8	-2
COc1ccc(-n2c(-c3ccc(Cl)cc3)cnc2SCc2nccn2C)cc1	2	0
COc1ccc(C2(c3ccc(OC)cc3)NC(=O)N(Cn3nnc4ccccc4c3=O)C2=O)cc1	0	2
Cc1nn(-c2ccc(Cl)cc2)c2sc(C(=O)NC3=NCCS3)cc12	8	-5
Cn1nc(C(=O)N2CCN(S(=O)(=O)c3ccccc3)CC2)c2ccccc2c1=O	8	0
O=C(CCSc1ccccc1)Nc1ccc(S(=O)(=O)NCc2ccco2)cc1	9	8
O=C(OC(C(=O)c1ccccc1)c1ccccc1)c1ccco1 (configuration not stated)	-8	-14
O=C(COC(=O)c1ccccc1NCCO)NCc1ccc(F)cc1	11	2
Cc1ccccc1N1C(=O)Cc2ccccc2C1=O	16	2
CCn1c(-c2ccccc2)c(C(=O)CN2CCN(C)CC2)c2ccccc21	38	2
CC(C)(C)C(=O)CN1CCN(c2ccccc2O)CC1	74	40
CC(C(=O)NCc1ccc2c(c1)OCO2)n1ncc(Cl)c(Cl)c1=O (configuration not stated)	18	8
COc1ccc(C(=O)OCC(=O)C(C)(C)C)c(OC)c1OC	-4	-5
Cc1ccc(CNCC(O)COCC2CCCO2)n1C (configuration not stated)	12	-4
O=C1c2ccccc2C(=O)N1CCSC1=NN2CCS(=O)(=O)N=C2S1	-24	-4
CC(=O)Nc1cccc(NC(=O)Nc2ccccc2)c1	12	4
c1ccc(-n2nnnc2Sc2nnc(C3COc4ccccc4O3)n2-c2ccccc2)cc1 (configuration not stated)	8	6
O=C(O)CC(NS(=O)(=O)c1cccs1)c1ccccc1 (configuration not stated)	-1	-4
O=C(CSc1nnc(-c2ccco2)n1Cc1ccccc1)NC1CCCc2ccccc21 (configuration not stated)	18	4
CCC(CC)NC(=O)CCc1c(C)nc2nc(N)nn2c1C	10	6
Cc1cc(C)nc(SCC(=O)N/N=C2\CCc3ccccc32)n1	26	2
CCOc1ccc(C(=O)NCC(=O)N2CCC(C)CC2)cc1OCC	13	4
CC(Sc1nnc(NC2CC2)s1)C(=O)Nc1ccc2c(c1)OCO2 (configuration not stated)	14	0
c1ccc2c3c([nH]c2c1)CNCC3	-6	11
Cc1nc(SCC(=O)Nc2ccc3c(c2)OCCCO3)n(C2CCCCC2)c1C	8	-2
O=C(Nc1ccccc1Cc1ccccc1)c1cc2c(nc3sccn32)s1	12	3
COc1ccc(CCN(C)Cn2ncn(C)c2=S)cc1OC	20	31
COC(=O)c1ccc2c(c1)S(=O)(=O)NC(=NCc1ccco1)S2	17	4
CCN=c1scc(-c2ccco2)n1/N=C/c1cccc(C(F)(F)F)c1	7	0
COc1cc2c(cc1OC)C(CC(=O)O)NCC2 (configuration not stated)	10	2
Cc1ccc(NC(=O)CN(C)CC(=O)Nc2ccccc2)cc1	10	4
O=C(Cn1nnc(-c2cccc(C(F)(F)F)c2)n1)NC(=O)NC1CCCC1	10	3
CCN(CC)C(=S)SCc1ncc(-c2ccccc2)o1	13	4
Cc1c(C(=O)OCC(N)=O)sc2nc(-c3cccs3)cc(C(F)(F)F)c12	6	4
CN1CCC(=NNC(=O)c2ccc(CN3C(=O)c4cccc5cccc3c45)cc2)CC1	10	1
O=C1NC(=O)C2(CCc3ccccc32)N1 (configuration not stated)	11	6
O=C1/C(=C2/NCCN2C2CC(=O)N(c3ccccc3)C2=O)CC/C1=C\c1ccccc1 (configuration not stated)	8	2
CC(OC(=O)c1ccc2ncsc2c1)C(=O)N1CCCCC1 (configuration not stated)	13	18
CN1/C(=C\C(=O)COC(=O)CC2CCCC2)C(C)(C)c2ccccc21	21	8
Cn1ccsc1=NC(=O)c1ccc2c(c1)C(=O)N(Cc1ccccc1)C2=O	12	15
Cc1nc2ccccc2nc1OCC(=O)Nc1ccccc1	10	4
Cc1cc(C(=O)CSc2nnc(-c3cccs3)o2)c(C)n1CCc1ccc(F)cc1	0	-2
CCC(C)NC(=O)c1nc(-c2ccccc2)n(-c2ccccc2)n1 (configuration not stated)	-7	-8
Cc1sc2ncnc(SCC(=O)NC(=O)c3cccn3C)c2c1C	24	9
CCn1c(COC(=O)CCOc2cc(C)ccc2C)nc2cc(S(=O)(=O)N(C)C)ccc21	10	-2
Cc1ccc(C(=O)NC2CCCCCC2)cc1NC(=O)c1ccco1	8	7
Cc1cc(C(=O)CSc2nnc3ccccn23)c(C)n1C	16	10
COc1ccc(Cl)cc1NC(=O)C(C)N1c2ccccc2CC1C (configuration not stated)	15	4

Carrying on.
SMILES	BmaI1 enzyme	BmaI1 enzyme counterscreen
Cc1cc(C(=O)N(CCc2ccccc2)c2nc3ccccc3s2)on1	18	12
CC(CC(=O)Nc1nc(-c2cccs2)cs1)c1ccccc1 (configuration not stated)	16	0
C/C(N)=C(/C#N)C(=O)CSc1ccccc1F	10	6
CN(C)S(=O)(=O)c1cccc(CSc2nc3ccccc3n2CCC#N)c1	22	2
COc1cc([C@@H]2c3cc4c(cc3[C@@H](O[C@@H]3O[C@@H]5CO[C@@H](C)O[C@H]5[C@H](O)[C@H]3O)[C@H]3COC(=O)[C@H]23)OCO4)cc(OC)c1O	34	-23
Cc1cnc(C(=O)OCC(=O)c2c[nH]c3ccccc23)cn1	2	0
CC(OC(=O)c1cc(Cl)c(O)c(Cl)c1)C(=O)N1CCCCC1 (configuration not stated)	0	0
CN(C)c1nc(N(C)C)nc(N(C)C)n1	-14	-6
O=C(COC(=O)c1ccc2c(c1)OCCO2)NCc1ccccc1	21	7
O=C(CSc1nnc(-c2c[nH]c3ccccc23)o1)NC1CC1	16	20
Cc1cc(C(=O)COC(=O)c2cccs2)c(C)n1CCc1ccccc1	11	16
O=C1CCC(C(=O)OCc2c(Cl)cccc2Cl)N1 (configuration not stated)	8	10
Cn1c(C(C#N)C(=O)c2cccc(S(=O)(=O)N3CCc4ccccc43)c2)nc2ccccc21 (configuration not stated)	4	0
Cc1ccc2[nH]c3c(C#N)c(=O)c4nc(N5CCCC5)ncc4n3c(=O)c2c1	18	2
Nc1nc(N)nc(SCC(=O)N2CCSC2c2ccccc2F)n1 (configuration not stated)	16	14
Cc1cc(C)n2c(CNC(=O)c3ccc(S(=O)(=O)N4CCCCCC4)cc3)nnc2n1	6	0
CC1=C/C(=N\NC(=O)COc2ccc(C#N)cc2)CC(C)(C)C1	9	2
CCC1(C)NC(=O)N(/N=C/c2cc(C)n(-c3cccc(S(=O)(=O)N4CCOCC4)c3)c2C)C1=O (configuration not stated)	4	4
O=C(Nc1ccc(S(=O)(=O)C(F)F)cc1)C1CC(=O)N(Cc2ccccc2)C1 (configuration not stated)	11	0
CCCn1c(=O)c(CCc2ccccc2)nc2c1c(=O)[nH]c(=O)n2Cc1ccccc1	-8	-8
N#C/C(=C(/O)CN1CCCN(c2ccc(C(F)(F)F)cn2)CC1)c1nc2ccccc2[nH]1	3	-4
CN1CCCN(C(=O)NC(C)(C)C)c2nc3ccccc3nc21	14	12
COc1ccc2nc(NC(=O)c3ccco3)sc2c1	19	14
O=C(O)CCNS(=O)(=O)c1ccccc1	6	-2
O=c1[nH]c(CN2CCN(S(=O)(=O)/C=C/c3ccccc3)CC2)nc2ccccc12	6	-2
CCC(=O)Nc1ccc(C2=NN(C)C(=NCc3ccccc3)SC2)cc1	8	5
O=C(Cn1c(CC(=O)N2CCOCC2)nc2ccccc21)Nc1ccc2c(c1)OC(F)(F)O2	8	10
Cc1ccc(N2C(=O)N(Cc3cc(=O)n4ccsc4n3)C(=O)C2C)cc1 (configuration not stated)	8	-4
OCCn1c(CSc2ccccc2)nc2ccc(Cl)cc21	2	4
Cc1cc(OCC(O)CN2C(C)CCCC2C)ccc1C(C)C (configuration not stated)	-9	-10
CCCCn1c(=O)c2ccccc2n2c(SCC(=O)N3CCN(c4ccccc4)CC3)nnc12	80	24
O=C(Cn1cnc2sccc2c1=O)NC(=O)NCc1ccco1	8	10
CC(C)C(NC(=O)c1ccc(Cl)cc1)C(=O)NCC1CCCO1 (configuration not stated)	6	2
O=C(O)CCn1[nH]c(=O)c2ccccc2c1=O	12	10
C=CCn1c(C)cc(C(=O)COC(=O)c2ccc(S(=O)(=O)N3CCCC3)cc2)c1C	-1	0
Cc1nn(-c2ccccc2)c(C)c1-c1nc2ccccc2[nH]c1=O	14	10
Nc1nc2ncc(CNc3ccc(C(=O)N[C@@H](CCC(=O)O)C(=O)O)cc3)nc2c(=O)[nH]1	-7	12
Cc1ccc(O)c(C(=O)c2cnn(C(=O)c3cccc(S(=O)(=O)N4CCCC4)c3)c2)c1	10	4
CCOC(=O)c1c(C)[nH]c(C)c1C(=O)COC(=O)CCC1CCCC1	-14	0
CCN(C(=O)CSc1nnc(-c2ccccc2)c(-c2ccccc2)n1)C1CCS(=O)(=O)C1 (configuration not stated)	6	-2
Cc1csc(=Nc2c(C)n(C)n(-c3ccccc3)c2=O)n1Cc1ccccc1	16	-36
Cn1c(=O)[nH]c2c(c1=O)C(c1ccc(F)cc1)C1=C(COC1=O)N2 (configuration not stated)	-46	-42
Cc1ccc(C(=O)OCC(=O)NN2C(=O)NC3(CCC(C)CC3)C2=O)cc1 (configuration not stated)	12	-4
COCCNC(=O)c1cc(C(=O)c2cc(Cl)ccc2O)coc1=N	10	3
CCOc1ccc(-n2c(N)c(S(=O)(=O)c3ccccc3)c3nc(C#N)c(C#N)nc32)cc1	8	13
CCCCn1c2c(c(=O)n(C)c1=O)C(c1ccc(OC)cc1)C(NC(=O)c1ccccc1)C(=O)N2 (configuration not stated)	-4	-10
CCn1c(CSCC(=O)NC(C)C)nc2cc(S(=O)(=O)N3CCCCC3)ccc21	15	8
CCN(CC)S(=O)(=O)c1ccc(=O)[nH]c1	5	2
COC(=O)C(O)(c1cc(C)n(CC(C)C)c1C)C(F)(F)F (configuration not stated)	10	13
Cc1cc(C)nc(/N=C(/N=C(\N)NC(=O)c2ccccc2)Nc2ccccc2)n1	0	4
COC(=O)c1c(OCC(=O)N(Cc2ccccc2)C(C)(C)C)cc(=O)n2c1CCCCC2	4	0
O=C(CCNS(=O)(=O)c1ccc2c(c1)OCCO2)NC1CCCc2ccccc21 (configuration not stated)	12	7
CNCc1ccccc1N1CCOCC1	2	-1

In the list so far, 15 have an NH in an aromatic ring.
SMILES	BmaI1 enzyme	BmaI1 enzyme counterscreen
Cc1[nH]c2ccccc2c1/C=N/NC(=O)Cc1nc2sc(C)c(C)c2c(=O)[nH]1	26	12
Cc1[nH]c2ccc(C(=O)OCC(=O)c3cc4ccccc4o3)cc2c1C	16	10
c1ccc2c3c([nH]c2c1)CNCC3	-6	11
Cc1cnc(C(=O)OCC(=O)c2c[nH]c3ccccc23)cn1	2	0
O=C(CSc1nnc(-c2c[nH]c3ccccc23)o1)NC1CC1	16	20
Cc1ccc2[nH]c3c(C#N)c(=O)c4nc(N5CCCC5)ncc4n3c(=O)c2c1	18	2
CCCn1c(=O)c(CCc2ccccc2)nc2c1c(=O)[nH]c(=O)n2Cc1ccccc1	-8	-8
N#C/C(=C(/O)CN1CCCN(c2ccc(C(F)(F)F)cn2)CC1)c1nc2ccccc2[nH]1	3	-4
O=c1[nH]c(CN2CCN(S(=O)(=O)/C=C/c3ccccc3)CC2)nc2ccccc12	6	-2
O=C(O)CCn1[nH]c(=O)c2ccccc2c1=O	12	10
Cc1nn(-c2ccccc2)c(C)c1-c1nc2ccccc2[nH]c1=O	14	10
Nc1nc2ncc(CNc3ccc(C(=O)N[C@@H](CCC(=O)O)C(=O)O)cc3)nc2c(=O)[nH]1	-7	12
CCOC(=O)c1c(C)[nH]c(C)c1C(=O)COC(=O)CCC1CCCC1	-14	0
Cn1c(=O)[nH]c2c(c1=O)C(c1ccc(F)cc1)C1=C(COC1=O)N2 (configuration not stated)	-46	-42
CCN(CC)S(=O)(=O)c1ccc(=O)[nH]c1	5	2

Exported field by field: four of the compounds above
c1ccc2c3c([nH]c2c1)CNCC3
- BmaI1 enzyme: -6
- BmaI1 enzyme counterscreen: 11

Cc1nc(SCC(=O)Nc2ccc3c(c2)OCCCO3)n(C2CCCCC2)c1C
- BmaI1 enzyme: 8
- BmaI1 enzyme counterscreen: -2

O=C(Nc1ccccc1Cc1ccccc1)c1cc2c(nc3sccn32)s1
- BmaI1 enzyme: 12
- BmaI1 enzyme counterscreen: 3

COc1ccc(CCN(C)Cn2ncn(C)c2=S)cc1OC
- BmaI1 enzyme: 20
- BmaI1 enzyme counterscreen: 31

High-throughput results as filed in PubChem.

Some of the compounds tested (hit frequency here may not be typical).
